Screens (PubChem)
ALR inh: inhibitors of human sulfhydryl oxidase ALR; inhibition, % (no concentration beside the values); actives 3.8% (n = 290,000); P55789; purified ALR, DTT oxidation, H2O2 HRP-luminol luminescence;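 active = mean and each replicate at 75% or more; inconclusive = only one of the two met; inactive = neither met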;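 also: stock transfer was 7.5 nL into about 7.5 µL; 0% = neutral wells and 100% = wells with inactivated enzyme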
Calb FLC: affects C. albicans growth with fluconazole; C. albicans CaCi-2 (fluconazole-resistant clinical isolate) + fluconazole, Alamar Blue growth, 48 h; growth inhibition, % (test concentration not listed); actives 0.57% (n = 300,000); AID 1979;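 active = most replicates above 75%; inconclusive = exactly half above 75%; inactive = most below 75%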;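 also: all wells also contain fluconazole at 8 µg/ml as a sub-toxic cotreatment; 0% = median of DMSO wells and 100% = median of geldanamycin control wells; wells of about 8 µL received 7.5 nL stock; the first replicate is given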
Beta cell apopt: beta cell apoptosis inhibition | AID 435005 | actives 0.8% (n = 300,000) | INS-1E cytokine-induced death, ATP luminescence, 48 h; percent of positive-control rescue, neutral wells zero | protection from apoptosis, % (concentration not given with the values);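 active = all replicates at 75% or more, or half of them and the mean; inconclusive = half reach 75% but not the mean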;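 also: 0% = cytokine-treated negative control wells and 100% = positive control rescue; higher means more ATP so stronger rescue from cytokine killing; wells of about 40 µL received 100 nL stock; the first replicate is given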
Beta2AR agonist: agonists of human beta-2 adrenergic receptor inducing internalization. P07550. Am2.2-beta2AR cells, FAP receptor internalization, flow cytometry; reference of the scale not given here. response, % (concentration not given with the values). actives 0.43% (n = 340,000);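 active = response above a set limit, near 3 SD of response in nonfluorescent compounds, cut at about 42% in these data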;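 also: stock transfer was 100 nL into about 11 µL; a reference agonist was the positive control; negative values mostly stem from fluorescent compounds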
rRNA inh HTS: inhibits bacterial ribosomal RNA function over humanized ribosomes. actives 1.6% (n = 350,000). E. coli WT GFP vs humanized-ribosome RFP mutants, fluorescence, 24 h; active compounds read low; DMSO median 0, no signal -100. GFP signal change (wild-type ribosome), % (test concentration not listed). AID 720706;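 active = significant combined selectivity score with lowered wild-type GFP, culture density cut under 30%, mutant RFP and density less affected; inactive = any of these conditions unmet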; also: one replicate is shown; some compounds called inactive have numbers as strong as hits
LANA-H2B inh: blocks KSHV LANA binding to histone H2A/H2B | inhibition, % (no concentration beside the values) | actives 0.6% (n = 320,000) | cell-free LANA-H2A/H2B peptide, fluorescence polarization | Q9QR71; in the data active = inhibition mostly above about 10%, no sharp cut-off; inactive = mostly below about 6.7%;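 also: stock transfer was 7.5 nL into about 10 µL; 0% = median of vehicle wells and 100% = median of positive control wells; one replicate is shown; the record names a cut of 25% in any replicate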
Target sequence (Q9QR71 whole entry, looked up): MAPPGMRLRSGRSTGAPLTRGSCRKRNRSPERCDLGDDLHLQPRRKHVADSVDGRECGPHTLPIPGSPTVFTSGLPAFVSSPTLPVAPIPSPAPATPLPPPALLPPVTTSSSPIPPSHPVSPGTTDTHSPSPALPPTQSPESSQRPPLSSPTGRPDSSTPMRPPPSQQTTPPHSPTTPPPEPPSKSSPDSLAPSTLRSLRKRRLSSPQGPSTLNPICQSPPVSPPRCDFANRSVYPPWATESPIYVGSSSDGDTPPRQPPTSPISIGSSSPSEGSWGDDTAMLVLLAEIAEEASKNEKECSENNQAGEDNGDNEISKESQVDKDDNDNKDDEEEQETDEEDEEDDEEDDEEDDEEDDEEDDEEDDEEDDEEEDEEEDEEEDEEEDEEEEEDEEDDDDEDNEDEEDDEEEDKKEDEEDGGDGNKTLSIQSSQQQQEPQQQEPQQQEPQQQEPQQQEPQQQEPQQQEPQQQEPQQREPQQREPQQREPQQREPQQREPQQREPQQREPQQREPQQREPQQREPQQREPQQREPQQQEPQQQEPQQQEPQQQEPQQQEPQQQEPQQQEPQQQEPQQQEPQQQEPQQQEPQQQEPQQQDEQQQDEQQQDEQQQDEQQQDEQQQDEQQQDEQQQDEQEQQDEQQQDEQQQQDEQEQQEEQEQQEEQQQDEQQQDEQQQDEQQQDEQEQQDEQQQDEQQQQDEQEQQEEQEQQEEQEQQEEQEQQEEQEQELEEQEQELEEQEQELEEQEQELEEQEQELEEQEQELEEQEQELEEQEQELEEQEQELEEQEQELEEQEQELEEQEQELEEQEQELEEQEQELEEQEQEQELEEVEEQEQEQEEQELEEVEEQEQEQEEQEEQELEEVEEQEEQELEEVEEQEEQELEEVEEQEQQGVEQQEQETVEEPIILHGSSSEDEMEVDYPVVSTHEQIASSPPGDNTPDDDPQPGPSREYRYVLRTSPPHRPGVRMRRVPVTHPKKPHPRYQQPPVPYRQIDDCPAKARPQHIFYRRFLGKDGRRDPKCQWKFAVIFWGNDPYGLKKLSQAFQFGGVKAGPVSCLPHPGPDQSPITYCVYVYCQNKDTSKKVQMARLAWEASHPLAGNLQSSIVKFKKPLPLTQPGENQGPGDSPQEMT
A1 inh: inhibitors of the anti-apoptotic protein A1, read as caspase activation | MEF A1-2A-BIM cells, Caspase-Glo 3/7 luminescence, 3 h; percent of clofoctol response, vehicle zero | caspase activation, % (no concentration beside the values) | actives 0.066% (n = 330,000);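 active = over half of replicate activation scores above 10%, or exactly half above 10 with the replicate mean above 10; inconclusive = replicate mean below 10 yet half the replicates above 10; inactive = over half of replicates below 10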;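 also: wells of about 30 µL received 50 nL stock; many hits fall short of the cut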
T cruzi inh: T. cruzi replication inhibition. T. cruzi beta-gal in NIH3T3, luminescence, 90 h. inhibition, % (no concentration beside the values). actives 1.4% (n = 300,000). AID 1885;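 active = mean inhibition across valid replicates above about 55%, limit read from the data; inconclusive = mean below that limit but half or more replicates reach it; inactive = mean below it, under half of replicates reach it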;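 also: signal also drops with host cell toxicity which is not excluded here; 0% = plate median of DMSO wells and 100% = zero luminescence signal; higher percent means less beta-gal luminescence so fewer parasites; stock transfer was 50 nL into about 50 µL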
rRNA inh HTS OD600: recorded beside rRNA inh HTS, whose call it bears; OD600 change, %; measured here: OD600 growth;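 optical density of the mix in the first replicate; 0 = DMSO median and -100 = no signal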
rRNA inh HTS RFP: also measured in rRNA inh HTS; calls as there; RFP signal change, %; measured here: RFP humanized mutant strains;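 first replicate; 0 = DMSO median and -100 = no signal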
* = called active by the depositor; u = inconclusive; x = no result given. Some of the compounds tested (hit frequency here may not be typical).

SMILES	ALR inh	Calb FLC	Beta cell apopt	Beta2AR agonist	rRNA inh HTS	rRNA inh HTS OD600	rRNA inh HTS RFP	LANA-H2B inh	A1 inh	T cruzi inh
CC(=O)N/C(=C\c1ccccc1)C(=O)OCC(=O)Nc1cc(S(=O)(=O)N(C)C)ccc1C	x	-2	-2	32	9	4	3.2	-1.3	0.6	-9
Cc1ccc(NC(=O)CCNC(=O)c2ccc([N+](=O)[O-])cc2)cc1S(=O)(=O)N(C)C	0	4	6	4	-1	7	0.7	3.9	-0.3	21
Cc1ccc(S(=O)(=O)N2CCCCC2)cc1NC(=O)COc1ccccc1F	-9	25	6	-7	4	-1	-2.4	4.1	0.6	0
COc1ccc(/C=C2/SC(=S)N(NS(=O)(=O)c3ccccc3)C2=O)cc1	36	10	-5	13	-19	-29	-5.6	-4.0	-1.2	-1
CC1C(=O)N2CCCc3cc(S(=O)(=O)NCc4ccc(F)cc4)cc1c32 (centres undefined)	3	0	0	-2	9	-3	0.6	1.2	-0.1	30
N#C/C(=C\c1cccs1)C(=O)N1CCOCC1	12	9	-3	1	5	4	1.6	1.5	0.9	-9
Cc1ccccc1OCCCC(=O)NC1CCCCC1	7	-7	-1	-1	3	6	-2.1	-0.3	0.8	-8
COc1ccc(CCNC(=O)C2CCN(S(=O)(=O)N3CCC(C)CC3)CC2)cc1OC	0	2	-4	-5	2	-2	2.0	0.8	0.6	16
O=C1C2C3C=CC(C3)C2C(=O)N1CCCCCCN1C(=O)C2C3C=CC(C3)C2C1=O (centres undefined)	-13	1	-3	-4	-9	-11	1.9	-1.2	-0.1	x
CCCCn1c(N)c(N(CC)C(=O)c2cc(C)cc(C)c2)c(=O)[nH]c1=O	-2	1	-3	-2	8	10	-0.9	6.7	0.3	-10
CCOC(=O)Cc1csc(NC(=O)CSc2nncn2C)n1	-4	-3	1	-5	x	x	x	5.5	1.8	-11
CS(=O)(=O)c1ccccc1C(=O)Nc1cc2c(cc1C(=O)O)OCCCO2	-23	-2	0	-11	6	2	-2.2	-0.6	-0.7	7
CC(C)OC(=O)CSc1nnc(Cc2ccccc2)n1CC1CCCO1 (centres undefined)	0	4	-5	13	x	x	x	-2.9	0.9	-3
OCCC1CN(Cc2cnc(N3CCOCC3)s2)CCN1C1CCCC1 (centres undefined)	-4	-1	-2	8	7	4	-9.1	2.6	-0.9	1
CCOC(=O)c1ccccc1NC(=O)Cn1cnc2c(nnn2-c2ccc(C)cc2)c1=O	24	-4	-5	1	3	-2	-1.6	4.4	-0.6	18
O=C1c2ccccc2/C(=C\C#Cc2ccccn2)N1c1ccccc1	-3	x	56	15	11	11	7.0	-1.2	0.0	x
O=C(COc1ccc(Cl)cc1Br)OCC(=O)c1ccc[nH]1	-10	x	-1	9	x	x	x	9.2	-0.6	x
CCOc1ccc(C2=Nn3c(nnc3-c3ccco3)SC2)cc1	-2	u	0	-23	x	x	x	3.1	-0.4	16
COc1cc(S(=O)(=O)Nc2ccccc2N2CCCCC2)ccc1NC(C)=O	x	x	-5	-3	-18	-23	-3.5	-1.1	0.0	x
COc1ccccc1C(=O)Nc1nnc(-c2ccc(F)cc2)o1	0	22	x	10	-2	-12	-2.1	1.9	0.4	5
Cc1ccc2cc(C#N)c(SCC(=O)NCc3ccco3)nc2c1	22	-11	-1	-10	x	x	x	1.2	-2.5	-11
O=C(NNc1cc(Cl)cc(Cl)c1)c1c(F)cccc1Cl	3	-13	5	-2	-4	-4	-0.4	-1.0	1.1	x
Cc1cccc(-c2nc3ccccc3c(=O)n2NC(=O)Cc2ccc(Cl)cc2)c1	1	-47	17	-2	-1	-6	0.6	-1.5	1.4	-10
O=C(NCc1ccc(F)cc1)c1cnc(-c2ccccn2)nc1C(F)(F)F	-11	4	0	-7	x	x	x	-2.1	-0.1	-2
CC(C)(C)OC(=O)N1CCC(NC(=O)c2[nH]cnc2C(=O)Nc2ccccc2)CC1	-1	x	3	17	20	21	-2.3	-0.5	1.3	x

Next section (two carried over from the part before).
SMILES	ALR inh	Calb FLC	Beta cell apopt	Beta2AR agonist	rRNA inh HTS	rRNA inh HTS OD600	rRNA inh HTS RFP	LANA-H2B inh	A1 inh	T cruzi inh
O=C(NCc1ccc(F)cc1)c1cnc(-c2ccccn2)nc1C(F)(F)F	-11	4	0	-7	x	x	x	-2.1	-0.1	-2
CC(C)(C)OC(=O)N1CCC(NC(=O)c2[nH]cnc2C(=O)Nc2ccccc2)CC1	-1	x	3	17	20	21	-2.3	-0.5	1.3	x
COCCn1c(=NC(=O)c2cc(Cl)sc2Cl)sc2cc(S(N)(=O)=O)ccc21	-1	6	26	-13	x	x	x	2.1	-0.4	7
COC(=O)c1cc2ccccn2c2c(C(=O)OC)c(C(=O)OC)cc1-2	-1	5	10	6	10	12	0.0	3.1	0.3	-16
CS(=O)(=O)NNC(=O)CN1C(=O)C2C3C=CC(C3)C2C1=O (centres undefined)	8	34	-3	3	7	7	-0.4	-0.1	2.0	-5
CCOc1ccccc1NC(=O)CSc1nnc(CNC(=O)c2ccccc2F)o1	-5	3	2	-3	0	2	-0.5	0.7	-0.7	11
O=[N+]([O-])c1cccc(OCCCN2CCC(Cc3ccccc3)CC2)c1	x	-25	-3	23	-13	-12	13	-1.8	-2.5	45
CC(C)NS(=O)(=O)c1ccc(OCC(=O)NCc2ccco2)cc1	-2	2	1	3	10	10	4.0	0.1	-0.4	-8
CCOC(=O)c1ccccc1NC(=O)CN1C(=O)c2ccccc2S1(=O)=O	-8	15	-1	8	x	x	x	-1.1	0.1	-6
O=C(O)c1cc(S(=O)(=O)N(Cc2ccccc2)c2ccccc2Cl)ccc1Cl	5	-4	-5	3	-25	-33	-5.2	-2.8	-0.1	-7
Cc1c(C(=O)N/N=C/c2cccs2)nnn1-c1nonc1N	x	-15	-4	-14	2	8	0.0	0.5	0.6	18
CCN(CC)C1=NS(=O)(=O)c2cc([N+](=O)[O-])ccc21	-33	0	-3	8	17	13	-1.6	4.3	0.4	52
CCOC(=O)c1ccc2nc(C)c(CCC(C)=O)c(Cl)c2c1	4	13	-2	10	x	x	x	-0.2	-0.3	12
CCCC1=C(C(=O)OCC)C(c2ccc(N(C)C)cc2)n2ncnc2N1 (centres undefined)	98*	-25	-10	-6	x	x	x	-3.8	-0.2	5
CCCCOc1ccc(OCCNC(=O)C2CCCN2C(=O)Nc2ccccc2)cc1 (centres undefined)	x	0	0	-7	0	-25	-0.9	-16	0.2	4
Cc1cc(Cl)ccc1NC(=O)CSc1nnc(Cc2cccs2)n1Cc1ccco1	5	0	-2	-7	x	x	x	-0.4	0.0	19
O=C(N/N=C/C=C/c1ccccc1)C1CC1(c1ccccc1)c1ccccc1 (centres undefined)	-5	-2	5	2	x	x	x	11	-0.8	17
Nc1[nH]c(N=NC(=O)c2ccccc2)c2ccccc12	3	-24	-4	0	14	11	8.7	0.1	0.8	0
CN(C)c1ccc(C(=O)NN2C(=O)c3ccccc3C2=O)cc1	-3	-5	-7	-4	17	12	1.5	-2.3	0.6	-9
COC(=O)c1sccc1NC(=O)Cn1nnc(-c2ccc(C)cc2)n1	-13	0	6	-2	x	x	x	4.8	-0.5	24
O=C(O)C1CC=CCC1C(=O)Nc1cc(Cl)ccc1Cl (centres undefined)	-1	-5	0	-1	x	x	x	-0.7	-0.6	0
CCCC[N+](C)(C)CCC(=O)NC(C)(C)CS(=O)(=O)[O-]	x	-10	2	3	x	x	x	-3.6	-1.2	13
CC1Cc2ccccc2N1CC(=O)NC(c1ccccc1)c1ccccc1 (centres undefined)	-20	-4	2	1	5	4	16	-3.4	1.1	26
COc1cccc(NC(=O)c2cc(-c3ccc(OC)cc3OC)nc3ccccc23)c1	-5	0	4	-6	-2	1	0.2	-3.2	-0.1	8
CCn1cc(C(=O)Nc2ccc(C)cc2C)c(=O)c2ccc(C)nc21	-12	-4	-2	x	x	x	x	3.5	0.2	-2
CSCCC(NC(=O)COc1ccccc1)C(=O)OCCOc1ccc(Br)cc1 (centres undefined)	-12	x	1	-7	-22	-18	-5.1	-2.5	-1.5	-10
CCOc1ccc(S(=O)(=O)N2CCCC(C(=O)NCc3ccccc3)C2)cc1 (centres undefined)	4	1	-8	-6	23	27	2.3	-11	-0.2	-3
NS(=O)(=O)c1cc(C(=O)OCC(=O)Nc2ccc3c(c2)OCO3)ccc1Cl	-22	x	-6	-2	3	14	3.1	-0.6	0.8	x
CCc1cc(C(=O)OC)c(N2C(=O)C3C4C=CC(C4)C3C2=O)s1 (centres undefined)	1	3	-3	2	x	x	x	-2.7	-1.2	-2
COCCN1CC(CNC(=O)c2cc(COc3ccccc3SC)on2)CC1=O (centres undefined)	-2	-1	-1	13	10	5	2.3	6.2	-0.1	-7

Sorted by molar mass (smallest number first): 7 of the compounds above
SMILES	ALR inh	Calb FLC	Beta cell apopt	Beta2AR agonist	rRNA inh HTS	rRNA inh HTS OD600	rRNA inh HTS RFP	LANA-H2B inh	A1 inh	T cruzi inh
Nc1[nH]c(N=NC(=O)c2ccccc2)c2ccccc12	3	-24	-4	0	14	11	8.7	0.1	0.8	0
CN(C)c1ccc(C(=O)NN2C(=O)c3ccccc3C2=O)cc1	-3	-5	-7	-4	17	12	1.5	-2.3	0.6	-9
CS(=O)(=O)NNC(=O)CN1C(=O)C2C3C=CC(C3)C2C1=O (centres undefined)	8	34	-3	3	7	7	-0.4	-0.1	2.0	-5
Cc1c(C(=O)N/N=C/c2cccs2)nnn1-c1nonc1N	x	-15	-4	-14	2	8	0.0	0.5	0.6	18
CCn1cc(C(=O)Nc2ccc(C)cc2C)c(=O)c2ccc(C)nc21	-12	-4	-2	x	x	x	x	3.5	0.2	-2
CCOc1ccc(S(=O)(=O)N2CCCC(C(=O)NCc3ccccc3)C2)cc1 (centres undefined)	4	1	-8	-6	23	27	2.3	-11	-0.2	-3
COc1cccc(NC(=O)c2cc(-c3ccc(OC)cc3OC)nc3ccccc23)c1	-5	0	4	-6	-2	1	0.2	-3.2	-0.1	8
